Compound activity as filed in PubChem BioAssay.
VDR inh = vitamin D3 receptor (human) inhibition. P11473. VDR-SRC2-3 peptide fluorescence polarization, 2 h. Potency, µM, for the others: max response, negative = inhibition, hits mostly inhibitors. 400,000 compounds, 0.93% hits. AID 504847; active = well fitted inhibition curve with a large enough effect; inconclusive = small, poorly fitted or top-dose-only effect, or another doubt; inactive = no such curve, though single readings can be large or run the other way; also: series mostly up to about 120 µM
Target sequence (P11473 whole entry, looked up): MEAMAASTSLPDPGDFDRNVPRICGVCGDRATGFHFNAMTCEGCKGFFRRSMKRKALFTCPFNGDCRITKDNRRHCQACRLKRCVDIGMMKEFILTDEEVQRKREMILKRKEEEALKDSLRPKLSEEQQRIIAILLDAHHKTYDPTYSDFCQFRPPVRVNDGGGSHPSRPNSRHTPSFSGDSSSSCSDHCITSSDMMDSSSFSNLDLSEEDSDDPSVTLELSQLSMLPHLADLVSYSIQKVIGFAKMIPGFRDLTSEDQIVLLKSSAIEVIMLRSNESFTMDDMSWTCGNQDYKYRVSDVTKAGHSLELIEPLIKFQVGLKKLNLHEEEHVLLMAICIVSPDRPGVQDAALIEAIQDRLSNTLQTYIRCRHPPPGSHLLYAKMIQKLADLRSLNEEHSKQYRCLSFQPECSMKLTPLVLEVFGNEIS
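The screen uses fluorescence polarization to detect compounds that interfere with recruitment of the SRC2-3 coactivator peptide to VDR; plates are read after 2 h at room temperature.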
* marks the source's active call; other numbers are inactive results; ? = inconclusive; [ ] = dose if it differs, or a comment. % is scaled to controls: 0 for no effect and ±100 for the full control effect; potency is read from the fitted curve at half-maximal effect.

SMILES	VDR inh
CC(C)(C)C1CCc2c(C(=O)NNC(=O)/C=C/C(=O)O)csc2C1 (configuration not stated)	-18%
Cn1cnc2c1c(=O)[nH]c(=O)n2Cc1ccccc1	-9%
CN(C)c1ccc(CNC(=O)C2CCN(S(=O)(=O)c3ccc4c(ccn4C)c3)CC2)cc1	2%
COc1ccccc1-n1c(SC)nc(O)cc1=O	-11%
O=C(O)CCCC(=O)Nc1ccn(-c2ccccc2)n1	-13%
CCOC(=O)N1CCN(C(=O)c2cc3c(=O)n4cccc(C)c4nc3s2)CC1	-11%
COC(=O)c1sccc1NC(=O)/C=C/c1ccc(Cl)cc1Cl	-1%
O=C(NCCCc1ccccc1)c1cccc(NC(=O)C2CCCC2)c1	2%
Cc1cccc2cc(CNC3CCCC3)c(Cl)nc12	-8%
CS(=O)(=O)Cc1ccc(C(=O)N(CCc2ccccc2)Cc2ccccc2)cc1	13%
O=C(CSc1nnc(CNC(=O)c2ccccc2)o1)NCc1ccco1	3%
COc1ccc2c(c1)C1(Nc3ccccc3C(=O)N1c1ccccc1)C(=O)N2 (configuration not stated)	13%
Fc1ccc(-c2nc3ccncc3[nH]2)cc1	32%
O=C(CN1CCOCC1)Nc1nc(-c2ccc3c(c2)CCN3S(=O)(=O)c2ccccc2)cs1	-5%
CCC(=O)Nc1ccc(-n2nnnc2SCC(=O)NNC(=O)c2ccco2)cc1	-24%
Cc1cc(C(=O)OC(C)C(=O)NC2CCCCC2)c(C)o1 (configuration not stated)	-10%
COc1cc(/C=N/NC(=O)c2cccc(S(=O)(=O)N3CCOCC3)c2)cc(OC)c1O	2%
Cc1c(Cl)cccc1NC(=O)c1ncn[nH]1	7%
Cn1cnnc1SCC(=O)Nc1cccc(S(=O)(=O)N2CCCCCC2)c1	4%
C/C=C/C=C/C(=O)[C@@H]1[C@@H]([C@]2(C)OC(=O)C(C)=C2O)[C@H]2/C(=C(O)/C=C/C=C/C)C(=O)[C@]1(C)C(=O)C2(C)O (some centres not stated)	?

Continued, starting with the last 2 of the part before.
SMILES	VDR inh
Cn1cnnc1SCC(=O)Nc1cccc(S(=O)(=O)N2CCCCCC2)c1	4%
C/C=C/C=C/C(=O)[C@@H]1[C@@H]([C@]2(C)OC(=O)C(C)=C2O)[C@H]2/C(=C(O)/C=C/C=C/C)C(=O)[C@]1(C)C(=O)C2(C)O (some centres not stated)	?
CC(C)n1nnnc1SCC(=O)N1CCOCC1	-10%
CCN(CC)C(=O)CSc1nc(-c2ccco2)cc(C(F)(F)F)c1C#N	6%
N#Cc1ccccc1Cn1cnc2nc3c(cc2c1=O)CCCC3	-3%
COc1cc2c(cc1OC)C(COc1ccc3c(C)cc(=O)oc3c1)N(C(=O)c1cccc(OC)c1OC)CC2 (configuration not stated)	-10%
CCn1c(SCc2nc3cc(OC)c(OC)cc3c(=O)[nH]2)nc2ccccc21	24%
NC(=O)C1CCN(C(=O)CN(c2ccc3c(c2)OCCO3)S(=O)(=O)c2ccccc2)CC1	-12%
Cc1nc2ccc(S(=O)(=O)NCC(=O)N3CCN(c4ccccc4)CC3)cc2s1	16%
Cc1ccc(S(=O)(=O)CCC(=O)NCCN2C(=O)S/C(=C\c3ccccc3)C2=O)cc1	-26%
CCCCc1ccc(-n2nc3cc(Cl)c(NC(=O)c4ccc(OC)cc4)cc3n2)cc1	1%
O=C(O)c1cccc(S(=O)(=O)N2CCSCC2)c1	15%
COc1ccc(C2c3ccc(O)cc3Oc3ncn4nc(-c5ccncc5)nc4c32)cc1OC (configuration not stated)	-11%
CC(C)[C@H](NC(=O)OCc1ccccc1)C(=O)OCc1ccccc1	14%
Cc1ccc(C)c(NC(=O)CN2C(=O)CNC2=O)c1	-9%
O=C(COC(=O)c1ccc(-n2cnnn2)cc1)Nc1cc(Cl)ccc1F	-9%
CCc1ccc(NC(=O)C(C)OC(=O)c2ccc(N3CCCC3)c([N+](=O)[O-])c2)cc1 (configuration not stated)	0%
C=CCOc1c(Br)cc(CNn2nnnc2N)cc1OC	-4%
O=C(c1cc(S(=O)(=O)N2CCOCC2)c(Cl)cc1Cl)N1CCN(S(=O)(=O)c2cccc(F)c2)CC1	1%
COc1cc2c(cc1OC)CN(C(=O)c1cc(=O)c3ccccc3o1)CC2	6%
CCN1CCN(C(=O)CN(c2ccc(C)cc2)S(C)(=O)=O)CC1	?
Cc1cccc(COc2coc(CN3CCN(C(=O)c4ccco4)CC3)cc2=O)c1	-19%
O=C(Cn1nnc2ccccc2c1=O)Nc1ccc(S(=O)(=O)N2CCOCC2)cc1	-4%
O=C(NCCN1C(=O)S/C(=C\c2ccc(Cl)c([N+](=O)[O-])c2)C1=O)C1=COCCO1	-10%
O=c1c2ccccc2nc2n1CCCN2	1%
Nc1ccccc1Sc1cc(Cl)nnc1Cl	-22%
CC(C)C(C(=O)NC1=NCCS1)c1ccc(Cl)cc1 (configuration not stated)	-11%
Cc1ccnc(NC(=O)COC(=O)c2ccc(F)cc2F)n1	10%
COc1ccc(C(C(=O)NC2CCCCC2)N(C(=O)c2ccccn2)c2cccnc2)cc1 (configuration not stated)	-5%
COc1ccc(C(c2nnnn2Cc2cccs2)N2CCN(c3ccccc3)CC2)cc1OC (configuration not stated)	-7%
Cc1ccc(C)c(NC(=O)Cn2ncc3c([nH]c4ccccc43)c2=O)c1	6%
CC(C)CC(=O)Nc1ccc([N+](=O)[O-])cc1Cl	-3%
O=C(CCNS(=O)(=O)c1cccc2nsnc12)N1CC(=O)N(CCc2ccccc2)C(=O)C1	4%
COc1cccc(-c2nnc(SCC(=O)OC(C)C)n2Cc2ccco2)c1	-13%
COc1ccccc1Oc1ccc(NC(=O)Cc2ccccc2)cc1	-5%
Cc1cc(F)ccc1NC1(c2ccccc2)C(=O)c2ccccc2C1=O	-6%
COc1nccnc1NS(=O)(=O)c1ccc(NC(=S)NC(=O)c2cccc(F)c2)cc1	-22%
CCn1c(=O)cc(SCC(=O)NCCC2=CCCCC2)c2ccccc21	-9%
COc1ccccc1N1CCN(C(=O)c2cccc(S(=O)(=O)NCc3cccnc3)c2)CC1	17%
COc1ccccc1/C=C/C(=O)OCC(=O)NC1CCCCCCC1	-5%
COc1ccc(S(=O)(=O)NC(CC(C)C)C(=O)NC(C)c2cccs2)cc1 (configuration not stated)	18%
O=C(Nc1ccc(C(=O)O)cc1)/C(=C\c1ccc2c(c1)OCO2)NC(=O)c1ccccc1	30%[activator]
O=C(Nc1cccc2ccccc12)/C(=C\c1cccc([N+](=O)[O-])c1)NC(=O)c1cccs1	2%
COc1ccccc1CC(=O)Nc1ccc(S(=O)(=O)N2CCOCC2)cc1	23%
Cc1ccc2nc3c(cc2c1)c(NC(=O)c1cccnc1)nn3C	20%
CCOC(=O)/C(C(=O)Nc1ccccc1Cl)=C1/NC(C)(C)Cc2ccccc21	7%
O=C(CSc1nccn(-c2ccc(Br)cc2)c1=O)Nc1ccccc1F	-23%
O=C1CCc2cc(S(=O)(=O)Nc3ccccc3)ccc2N1	6%
O=C(O)c1ccc(Cl)cc1Nc1nc2cc(Cl)ccc2o1	?
Cc1c(/C=C/C(=O)c2ccc(Cl)s2)cnn1C	-20%
CCOc1ccc(C(=O)Nc2cc(-c3nc4ccccc4[nH]3)ccc2Cl)cc1[N+](=O)[O-]	43%[activator]
CCOC(=O)N1CCN(C(=O)CSc2nnc(-c3cccs3)o2)CC1	-13%
CCOC(=O)C1(CCOc2ccccc2)CCN(Cc2ccc(O)c(OC)c2)CC1	-2%
CCC1C(=O)CC(c2ccccc2)NC1c1ccccc1 (configuration not stated)	6%
CCc1ccc(S(=O)(=O)c2cn(C)c3cc(N4CCCC4)c(F)cc3c2=O)cc1	3%
CCOC(=O)C1CCN(C(=O)C(C)Oc2ccc(C(=O)c3ccccc3)cc2)CC1 (configuration not stated)	-3%
CC1(/[N+]([O-])=C/c2ccccc2F)CCCCC1=O (configuration not stated)	-9%
CN(C)c1ccc(CNc2nc(-c3ccco3)nn2S(=O)(=O)c2ccc(Cl)cc2)cc1	5%
S=C(NCCC(c1ccccc1)c1ccccc1)Nc1cccc(Cl)c1	-2%
NC(=O)Cn1cc(/C=N\NS(=O)(=O)c2ccc(Cl)cc2)c2ccccc21	11%
Cn1c(=O)c(-c2cc(F)cc(F)c2)nc2cnc(Oc3cccc(Cl)c3)nc21	0%
O=S(=O)(c1ccc(F)cc1)N1CN(Cc2ccco2)c2nc3ccccc3nc21	-2%

16 neighbouring entries out of the list so far, for reference:
SMILES	VDR inh
Cc1ccc2nc3c(cc2c1)c(NC(=O)c1cccnc1)nn3C	20%
CCOC(=O)/C(C(=O)Nc1ccccc1Cl)=C1/NC(C)(C)Cc2ccccc21	7%
O=C(CSc1nccn(-c2ccc(Br)cc2)c1=O)Nc1ccccc1F	-23%
O=C1CCc2cc(S(=O)(=O)Nc3ccccc3)ccc2N1	6%
O=C(O)c1ccc(Cl)cc1Nc1nc2cc(Cl)ccc2o1	?
Cc1c(/C=C/C(=O)c2ccc(Cl)s2)cnn1C	-20%
CCOc1ccc(C(=O)Nc2cc(-c3nc4ccccc4[nH]3)ccc2Cl)cc1[N+](=O)[O-]	43%[activator]
CCOC(=O)N1CCN(C(=O)CSc2nnc(-c3cccs3)o2)CC1	-13%
CCOC(=O)C1(CCOc2ccccc2)CCN(Cc2ccc(O)c(OC)c2)CC1	-2%
CCC1C(=O)CC(c2ccccc2)NC1c1ccccc1 (configuration not stated)	6%
CCc1ccc(S(=O)(=O)c2cn(C)c3cc(N4CCCC4)c(F)cc3c2=O)cc1	3%
CCOC(=O)C1CCN(C(=O)C(C)Oc2ccc(C(=O)c3ccccc3)cc2)CC1 (configuration not stated)	-3%
CC1(/[N+]([O-])=C/c2ccccc2F)CCCCC1=O (configuration not stated)	-9%
CN(C)c1ccc(CNc2nc(-c3ccco3)nn2S(=O)(=O)c2ccc(Cl)cc2)cc1	5%
S=C(NCCC(c1ccccc1)c1ccccc1)Nc1cccc(Cl)c1	-2%
NC(=O)Cn1cc(/C=N\NS(=O)(=O)c2ccc(Cl)cc2)c2ccccc21	11%

New compounds follow.
SMILES	VDR inh
COc1cc(/C=N/Nc2nc(C)cc(C)n2)ccc1OC(=O)c1ccco1	-28%
O=C(COc1ccc(Br)cc1F)N1CCN(c2ncccn2)CC1	1%
O=C(O)c1cc(N/N=C/C=C/c2ccccc2)ccc1Cl	-8%
O=C(Nc1ccc(F)c(F)c1)c1cc(S(=O)(=O)NC2CCCCCC2)ccc1F	6%
CC1CCN(S(=O)(=O)c2ccc3c(c2)c(=O)c(C(=O)NCc2ccco2)cn3C)CC1	-10%
CCc1cccc(C)c1NC(=O)C1=C(C(=O)O)CCCC1	5%
O=C(OCc1c(F)cccc1Cl)c1cnc2ccccc2n1	-6%
O=C(Nc1ccccc1C(=O)NCc1ccco1)c1ccco1	2%
COc1ccccc1NC(=S)Nc1cccc2cnccc12	?
Cc1ccccc1OCCC(=O)Nc1ccc2c(C)cc(=O)oc2c1	-14%
CSc1ccccc1NC(=O)CSc1nnnn1-c1ccccc1SC	16%
O=C(COC(=O)c1ncc(Cl)c(Cl)c1Cl)NC1CCS(=O)(=O)C1 (configuration not stated)	-5%
O=C(Nc1ccc2c(c1)OCO2)c1cnccn1	4%
COc1ccc(O)c(C(=O)c2cc(C#N)c(=O)n(-c3ccc(Cl)cc3)c2)c1	-13%
COc1ccc(N(C(=O)c2cccc(C)c2)S(=O)(=O)c2ccc(C)cc2)cc1	2%
CCNC(=O)c1c(NC(C)=O)sc2c1CCCC2	-2%
OC(CNCc1ccc(Cl)cc1)C(F)(F)F (configuration not stated)	-9%
CCS(=O)(=O)Nc1cccc(C(=O)O)c1	6%
CCCOc1ccc(C(=O)NC(C)C(=O)O)cc1 (configuration not stated)	-3%
CCS(=O)(=O)c1ccc(O)c(NC(=O)Nc2ccccc2OC)c1	8%
COC(=O)[C@]1(C)N[C@H](CN(C)C(=O)Nc2ccc(C(F)(F)F)cc2)[C@@H]2C(=O)N(C)C(=O)[C@@H]21	-10%
CCOC(=O)c1c(C)nc2c(C)cccn12	7%
N/C(CC(=O)Nc1ccc(F)c(Cl)c1)=N\OC(=O)c1cccs1	0%
CC1CCC/C(=N\NC(=S)NCc2ccccc2)C1 (configuration not stated)	-1%
COc1ccc(NC(=O)COC(=O)/C=C/c2cnc3ccccc3n2)cc1	-23%
CC(C)(C)c1ccc(-n2ncc3c2CCCC3NC(=O)C2=NNC(=O)CC2)cc1 (configuration not stated)	-5%
O=C(Cn1c(=O)n(-c2cccc(Cl)c2)c(=O)n1CC(=O)N1CCCCC1)N1CCCCC1	11%
CCOC(=O)C(CS)NCCN[C@@H](CS)C(=O)OCC (some centres not stated)	28µM*
CC1CCN(C(=O)C2CCC(CNc3c(N4CCCCC4)c(=O)c3=O)CC2)CC1 (configuration not stated)	-19%
Cc1ccc(S(=O)(=O)N(CC(O)CN2C(=O)NC(C)(C)C2=O)c2cccc(C)c2)cc1 (configuration not stated)	0%
COc1ccc(CC(=O)N/N=C/c2ccc(C)s2)cc1	6%
COCCCN(C(=O)CC1OC(=O)c2ccccc21)c1c(N)n(Cc2ccccc2)c(=O)[nH]c1=O (configuration not stated)	2%
O=C(COC(=O)CCC(=O)c1cccs1)NCc1cccs1	5%
O=C(Oc1cccc(/C=N/NC(=O)c2ccccn2)c1)c1ccc([N+](=O)[O-])cc1	-4%
COc1ccc(N2C(=O)CSC23C(=O)N(CC(=O)NCCc2ccccc2)c2ccccc23)cc1 (configuration not stated)	2%
COc1ccccc1-c1c(C)nn2c(N)c(-c3ccc(Cl)cc3)cnc12	-15%
CC1CC2(C)CC(C)C1(COC(=O)Nc1ccccc1)CO2 (configuration not stated)	-1%
CNc1nc2cccnc2s1	-21%
C=CCn1c(SCC(=O)N2CCc3ccccc3C2)nc2sc(CC)cc2c1=O	0%
CC(Sc1nnnn1C)C(=O)Nc1ccc(Oc2ccccc2)cc1 (configuration not stated)	11%
O=c1c2sccc2[nH]c(=S)n1-c1ccccc1	-2%
N#CCCCS(=O)(=O)c1nc2ccccc2s1	-1%

Some of the compounds tested. The share of hits here may be higher or lower than overall.
